# Assay outcomes from PubChem BioAssay.
# miR-21 FLuc – raises the signal of a miR-21 reporter. Potency, µM (top dose mostly 38.3 µM), for the others: top-dose reporter change, positive = more light. 340,000 tested, under 10 active. AID 2288. HeLa miR-21 FLuc reporter, luciferase, 48 h; active = well fitted rising curve with a large enough effect; inconclusive = small, poorly fitted or top-dose-only effect; inactive = no such curve, though single readings can be large or run the other way;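 note: % of control where 0% means no effect; miR-21 action dims this reporter so a rising signal means less miR-21 action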
#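 Compounds were titrated across several concentrations (up to approximately 40 uM) and incubated 48 hours with HeLa miR-21-FLuc reporter cells (miR-21 target sequence downstream of FLuc, endogenous miR-21). Readout was firefly luciferase luminescence after lytic detection reagent.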
# Rango complex inh – Rango-importin beta binding inhibition | Q14974 | Rango CFP/YFP FRET sensor + importin beta, 45 min | Potency, µM (series often up to 92.2 µM), inactives show at the highest dose inhibition of complex formation | 0.031% of 340,000 active; active = rising FRET ratio curve, often small or poorly fitted; inconclusive = mostly compound fluorescence or quenching in the first reads; inactive = flat curves in all reads;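 note: potency is the fitted concentration of half-maximal effect; 0% = DMSO wells and 100% = buffer wells lacking importin beta; nearly all actives have a fitted effect of over 15% in size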
#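 FRET biosensor (snurportin 1 IBB flanked by EYFP and cerulean), 50 nM, with compound 5 min, then 0.125 microM importin beta in PBS, 1 mM DTT, 0.02% Tween-20, 0.1% BSA. CFP/YFP ratio read after 45 min at room temperature; pre-read flags interference.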
# Rango release inh – prevents RanGTP from dissociating the Rango-importin beta complex; O95149+P62826; Biochemical FRET Rango-importin beta, RanGTP-induced dissociation; Potency, µM (doses to about 46.1 µM), for inactives: at the top dose activity change, negative = inhibition; 0.071% of 340,000 active; AID 540253; active means falling FRET ratio curve, often poorly fitted, with flat reads before Ran was added; inconclusive means other falling curves, or compound fluorescence or quenching; inactive means flat or rising ratio curve;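 note: potency is the fitted concentration of half-maximal effect; % of control where 0% means no effect; nearly all actives have a fitted effect of over 45% in size; -100% = wells without RanGTP and RCC1; the record marks most hits as doubtful in a second field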
#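 Quantitative HTS using a FRET biosensor: 0.1 uM Rango, 0.25 uM importin beta, 0.6 uM Ran, 2 mM GTP, 0.2 uM RCC1 final, PBS with DTT, Tween-20 and BSA. Post-read taken 45 min after Ran addition.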
# GLA inh pH 4.5 – blocks human alpha-galactosidase A at pH 4.5. P06280. purified enzyme, 4-MU-alpha-Gal fluorescence, pH 4.5. activity change, negative = inhibition, % at 105 µM. 230,000 tested, under 10 active. AID 1467; inconclusive = small, poorly fitted or top-dose-only inhibition, or a rising curve; inactive = flat fitted curve, though single readings scatter; no compound was filed as active;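 note: 0% = full activity with enzyme and -100% = basal without enzyme; dose as in the result columns while the protocol names 77 µM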
# Target sequence (P06280 whole entry, looked up): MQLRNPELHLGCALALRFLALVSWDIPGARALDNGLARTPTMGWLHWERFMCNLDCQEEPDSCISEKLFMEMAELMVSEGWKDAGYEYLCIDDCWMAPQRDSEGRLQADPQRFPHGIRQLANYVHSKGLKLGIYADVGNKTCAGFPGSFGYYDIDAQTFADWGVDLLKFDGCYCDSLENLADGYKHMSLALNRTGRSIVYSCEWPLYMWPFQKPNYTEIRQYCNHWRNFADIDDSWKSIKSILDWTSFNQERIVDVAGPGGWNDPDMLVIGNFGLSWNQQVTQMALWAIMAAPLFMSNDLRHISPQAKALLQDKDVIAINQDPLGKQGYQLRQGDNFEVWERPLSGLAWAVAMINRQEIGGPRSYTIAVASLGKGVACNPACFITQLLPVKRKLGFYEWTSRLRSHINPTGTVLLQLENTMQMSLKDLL
# The depositor's hits bear a star; ? = inconclusive; . = no result given; & = joins results of further samples.
# Below each compound: miR-21 FLuc, Rango complex inh, Rango release inh, GLA inh pH 4.5
CCn1c(SCC(=O)Nc2cccc(F)c2)nc2c(c1=O)SC(C)C2 (centres undefined)
  -13.4%, -0.4%, 25.4%, -10.5
Cc1ccc(C(=O)NC(C(=O)Nc2ccccc2)c2ccccc2)cc1 (centres undefined)
  -0.2%, -0.1%, 1.3%, .
CCCn1nnnc1SCC(=O)NNC(=O)C1CCCCC1
  1.1%, ., ., -12.8
COc1ccc(OC)c(NC(=O)C23CCC(C)(C(=O)C2)C3(C)C)c1 (centres undefined)
  -6.1%, -2.3%, 8.0%, 0.1
COc1ccccc1C1=NOC(C)(c2sc(-c3ccc(Cl)cc3)nc2C)C1 (centres undefined)
  -33.2%, -0.3%, 0.3%, -3.9
COc1cccc(C2N(Cc3ccccc3)C(=O)C2(F)F)c1OC (centres undefined)
  -0.1%, -2.8%, -7.8%, .
CCn1cc(/C=C(\NC(=O)c2ccc(C)cc2)C(=O)NCCN2CCOCC2)c2ccccc21
  0.2%, ?, ?, .
COc1ccc(/C(O)=C2\C(=O)C(=O)N(CCN(C)C)C2c2cccc(OC)c2OC)cc1 (centres undefined)
  -1.8%, 0.5%, -14.8%, -9.5
CCOC(=O)N1CCN(C(=O)C(NC(=O)c2ccc(CC)cc2)C(C)C)CC1 (centres undefined)
  12.3%, 0.0%, -13.1%, -16.3
Cc1cccnc1NC(=O)CCNC(=O)c1ccccc1Cl
  -2.9%, 4.2%, 12.7%, .
O=C(O)COc1ccc(/C=C/c2ccc3cccc([N+](=O)[O-])c3n2)cc1
  -7.6%, -2.4%, 0.2%, -0.8
Cc1ccc(SCC(=O)Nc2ccc(N3CCOCC3)cc2)c(C)c1
  7.3%, 3.2%, 1.1%, 0.2
Cn1cc([N+](=O)[O-])c(C(=O)N(Cc2ccccc2)Cc2ccccc2)n1
  -3.3%, 3.5%, 11.7%, 4.9
CCOC(=O)c1c(C)[nH]c(C(=O)COC(=O)CSC)c1C
  -10.0%, 0.5%, -8.2%, -10.3
CNC(=O)c1cc(S(=O)(=O)N(C)C)ccc1Cl
  -2.5%, 15.8%, 2.1%, -9.0
Cc1ccc2c(c1)N1C(=O)c3ccccc3C1C1=C(CC(C)(C)CC1=O)N2 (centres undefined)
  -10.0%, 1.1%, 1.5%, 0.3
CC(=O)C[C@H](O)CC(=O)[C@@H]1OC(=O)[C@@H](C)C/C=C\Cc2ccccc21
  ., 0.4%, 11.1%, .
O=C(Nc1cccc2cccnc12)c1ccc(Br)cc1Br
  -10.8%, 1.8%, -5.3%, .
CN1CCN(S(=O)(=O)c2ccc(NC(=O)c3ccccc3Cl)cc2)CC1
  -2.5%, -2.0%, 2.1%, .
O=C(O)C1CCCCC1C(=O)Nc1cc(C(F)(F)F)ccc1Cl (centres undefined)
  -1.9%, 2.7%, -5.9%, -3.4
COc1ccc(C(=O)N2CCNC(=O)C2CC(=O)Nc2ccc(C)cc2)cc1 (centres undefined)
  -4.2%, 0.4%, 43.2%, ?
CC(C)CCOc1cccc(OCC(=O)N(C)C2CCS(=O)(=O)C2)c1 (centres undefined)
  -7.0%, 5.3%, 5.3%, 2.2
O=C(O)C1CCCCC1C(=O)NCCc1c[nH]c2ccccc12 (centres undefined)
  -10.0%, -2.8%, 0.8%, 2.1
COc1ccc(NC(=O)C(C)N2C(=O)c3ccccc3C2=O)cc1S(=O)(=O)N1CCOCC1 (centres undefined)
  -1.0%, -4.0%, -3.0%, -10.5
O=C1/C(=C/c2cccc(Br)c2)SC(=S)N1/N=C/c1cc([N+](=O)[O-])ccc1O
  -6.5%, -1.0%, ?, -4.3
O=C(c1c(F)cccc1F)N(Cc1ccccn1)C1CC1
  -22.1%, -1.9%, 12.8%, 6.3
Cc1cc(N(C)C)cc(C)[n+]1[O-]
  -6.2%, 0.5%, 10.4%, 0.0
CC(=O)Nc1cc(NC(=O)CCCC(=O)O)ccc1Cl
  -1.0%, -0.1%, 0.9%, 3.6
Cc1nnc(NC(=O)CSc2ccc([N+](=O)[O-])cn2)s1
  -1.2%, -1.6%, -3.5%, 0.2
COc1ccc(/C=N\NC(=O)c2ccccc2Br)cc1COc1c(F)c(F)cc(F)c1F
  15.4%, -1.4%, 8.2%, .
COc1cccc(CCc2nnc(N)s2)c1
  -13.8%, 2.6%, 1.6%, .
Oc1ccc(-c2nc3ccccc3s2)c(O)c1
  -53.7%, 6.7%, 3.6%, 22.4
COc1ccc(S(=O)(=O)N2CCOCC2)cc1N=Nc1sc(N)nc1-c1ccccc1
  -3.9%, 1.5%, 6.4%, -5.8
Cc1ccc(NC2=NC(c3ccc(F)cc3)n3c(nc(C)cc3=O)N2)c(C)c1 (centres undefined)
  0.1%, -2.2%, 1.1%, 2.3
CC(NC(=O)c1ccco1)C(=O)OCc1cccc(Cl)c1 (centres undefined)
  -0.7%, -0.9%, -9.6%, 8.4
CCc1ccc2oc(C(=O)NCC(c3ccc(OC)cc3)N3CCCCC3)c(C)c2c1 (centres undefined)
  0.0%&6.1%, -3.6%, 8.0%, .
COC(=O)c1c(NC(=O)CSc2nnnn2-c2ccc3c(c2)OCO3)sc(C)c1C
  -0.4%, -2.4%, 19.0%, -9.5
CC12CN3CC(C)(CN(C1)C3c1c[nH]c3ccccc13)C2=O (centres undefined)
  -0.8%, -0.9%, 4.6%, -4.0
CCCCC(=O)Nc1c(-c2ccc(OC)c(OC)c2)c(=O)c2ccccc2n1C
  -3.3%, -0.3%, -18.0%, .
COc1cc(C(=O)NCC(=O)OCC(=O)N2CCc3ccccc32)cc(OC)c1OC
  -0.3%, 0.4%, 21.2%, 9.0
COC(=O)C1=C(C)NC(C)=C(C(=O)OC)C1C(=O)OCC(=O)c1ccc(Br)cc1
  ., -3.5%, -6.8%, .
CCN(CCNS(=O)(=O)c1ccc2c(c1)oc(=O)n2C)c1ccccc1
  -5.5%, 1.6%, 17.5%, -4.3
O=C(CCN1CCOCC1)NNC(=O)Nc1cccc(Cl)c1
  4.0%, -0.3%, -3.6%, .
Clc1ccc(-c2ccc(C=Nc3ccc(N4CCOCC4)cc3)o2)cc1
  -14.0%, -2.3%, -8.8%, -12.8
Cc1occc1C(=O)NN1C(=O)C2C3CCC(O3)C2C1=O (centres undefined)
  -7.3%, -3.3%, 7.2%, -14.6
NC(=O)CC(NC(=O)c1ccc(Br)cc1)c1ccc(NC2CCCCC2)c([N+](=O)[O-])c1 (centres undefined)
  -5.5%, 2.7%, 11.2%, .
CCn1c(CC(=O)Nc2ccccc2C)nnc1SCC(=O)NC1=NCCS1
  2.7%, 0.4%, -8.6%, .
COc1cc(C(=O)NCc2cc(C)nc3ccccc23)cc(OC)c1OC
  11.2%, 1.0%, 14.1%, 5.9
O=C(Nc1ccc(O)c(-c2nc3ccccc3s2)c1)c1cccs1
  -3.7%, 5.4%, -7.8%, 3.8
CC(=O)c1sc2nc(-c3ccc(C)cc3)c3c(c2c1N)CCCC3
  -2.3%, ?, ?, -13.5
N#C/C(=C\c1cn[nH]c1-c1ccccc1)C(=O)NC1CCCCCC1
  5.3%, 0.7%, -14.7%, -10.4
CC(=O)Nc1ccc(S(=O)(=O)N2CCN=C2SCc2cccc(C)c2)cc1
  0.9%, 0.7%, -12.0%, .
COc1cccc(CN2CC(C(=O)NCCCn3cccn3)CCC2=O)c1 (centres undefined)
  0.2%, -0.9%, -3.6%, .
Cc1ccc(S(=O)(=O)N/N=c2\sc3ccccc3n2C)cc1
  -0.4%, 1.4%, -13.4%, 3.7
COc1ccc(C(=O)Nc2cnc3ccccn3c2=O)cc1
  -32.8%&24.1%, 0.7%, -18.6%, -6.1
CC1CCCCC1NS(=O)(=O)c1ccc2c(c1)CC(=O)N2C (centres undefined)
  -6.7%, 0.3%, 9.1%, .
Cc1c(C(=O)N2CCCc3ccccc32)oc2ccccc12
  -37.1%, 2.2%, 4.5%, .
O=S(=O)(c1cnc(Cl)c(Cl)c1)N1CCc2ccccc21
  -0.1%, -4.6%, 6.1%, 2.1
O=C(NCc1ccccn1)c1cc2c(ccc3ccccc32)oc1=O
  -19.3%, ?, ?, -7.4
O=c1cc(-c2ccccc2)nc2nc(CCc3ccccc3)[nH]n12
  0.3%, -0.9%, -8.2%, -5.9

# (next part)
# Below each compound: miR-21 FLuc, Rango complex inh, Rango release inh, GLA inh pH 4.5
CCOC(=O)c1c(O)c2ccccc2n(C)c1=O
  4.6%, -6.6%, -0.7%, 8.2
O=C(COC(=O)c1ccccc1F)Nc1ccc(S(=O)(=O)N2CCOCC2)cc1
  ., -1.1%, 7.2%, .
COc1ccc(C(=O)NCC(C)NC(=O)c2ccc(OC)cc2)cc1 (centres undefined)
  ., 0.5%, -18.7%, .
O=C1NC2(CCCCO2)CO1 (centres undefined)
  -0.2%, -1.4%, -4.3%, .
CCOC(=O)c1c(N2C(=O)Nc3ccccc3N2O)sc2c1CCCCC2
  -8.1%, -0.6%, -1.8%, -9.3
Cc1cc2ncn(-c3ncnc4sc5c(c34)CCCC5)c2cc1C
  -10.3%, 0.4%, -13.9%, 0.3
CC(C(=O)Nc1ncn[nH]1)N1C(=O)c2ccccc2C1=O (centres undefined)
  -1.6%, -0.7%, -7.1%, 2.6
O=C(CCc1ccccc1)NNC(=O)Cc1ccc(Cl)cc1
  0.8%, -2.4%, 22.1%, -13.1
C=CCOc1cccc(/C=N/NC(=O)C(=O)NCc2ccco2)c1
  -9.7%, -0.3%, -4.5%, 11.6
Cn1c(CCNC(=O)c2ccco2)nc2cc(NC(=O)c3ccccc3Cl)ccc21
  -31.3%, 0.7%, -12.6%, .
Cc1ccc(C(=O)COc2ccccc2N2C(=O)c3ccccc3C2=O)cc1
  -5.8%, 2.4%, 1.1%, 0.8
COc1cc(C2/C(=C(\O)c3ccc4c(c3)CC(C)O4)C(=O)C(=O)N2Cc2ccco2)ccc1O (centres undefined)
  -10.0%, 0.3%, -16.0%, -3.0
O=C(CCCl)Nc1ccc(S(=O)(=O)NCc2ccco2)cc1
  -2.6%, -1.1%, -5.3%, 0.8
CCC1C(=O)N=C(SCC(=O)Nc2ccc(Br)cn2)NC1=O (centres undefined)
  -2.4%, 6.5%, 0.2%, 5.4
COc1ccc(CCNC(=O)CN2C(=O)NC(c3ccccc3)(c3ccccc3)C2=O)cc1
  ., -0.1%, -8.5%, .
CSc1ccc(/C=N\NC(=O)CC(=O)NC(C)C)cc1
  2.8%, -0.8%, 5.4%, -0.7
CCC(=O)c1ccc(OCC(=O)OCC(=O)N2CCc3ccccc32)cc1
  ., -0.9%, 18.4%, .
O=S(=O)(c1ccc2nc(Nc3ccccc3)ccc2c1)N1CCCCC1
  6.3%, 0.0%, -12.5%, .
COn1c(SCC(=O)N(C)C)nc2ccccc2c1=O
  1.8%, 0.3%, -0.1%, 2.9
Cc1ccc(NC(=O)Cc2c(C(=O)O)n(C)c3ccccc23)cc1F
  -0.2%, -3.8%, 3.4%, 2.6
O=C(NNS(=O)(=O)c1ccc(Br)cc1)c1ccncc1
  -8.7%, 2.0%, 32.1%, -20.4
CC(C)[C@H](NC(=O)N1CCn2c1nc1ccccc12)C(=O)NCC1CCCO1 (some centres undefined)
  0.9%, ?, 7.8%, .
N#Cc1c(NC(=O)c2cccc(S(=O)(=O)Nc3ccc(C(=O)O)cc3)c2)sc2c1CCCC2
  -0.1%, -2.7%, -11.9%, -11.2
CCN(C[C@H]1N[C@@](Cc2ccccc2)(C(=O)OC)[C@H]2C(=O)N(C)C(=O)[C@@H]12)C(=O)Nc1ccc(C)cc1
  ., -3.5%, ?, .
O=C(CSc1nc2ccccc2c(=O)n1-c1ccc(F)cc1)Nc1ccc(N2CCOCC2)cc1
  0.2%, -1.7%, ?, -12.7
CCCNc1cc(C)c(C#N)c2nc3ccccc3n12
  -11.2%, ?, -0.2%, -12.4
CC(=O)Nc1ccc(S(=O)(=O)NCCC(=O)Nc2cc(C)ccn2)cc1
  ., 1.4%, 0.9%, .
CCCCNC(=O)NNC(=O)c1cc(C)on1
  -2.1%, -1.5%, -9.7%, -12.3
Cc1nnc(SCC(=O)Nc2cccc(Br)c2)s1
  ., -1.3%, -11.4%, .
COc1ccc2c(CC(=O)OCC(=O)Nc3ccc(C)cc3)coc2c1
  ., -1.0%, -0.6%, .

# The list is partial (hit frequency here may not be typical).
